# Source: PubChem BioAssay (National Center for Advancing Translational Sciences (NCATS))
# VACV Venus inh = inhibitors of vaccinia virus (Venus reporter). Vaccinia virus Venus reporter expression, fluorescence. Potency, µM (highest dose often 36.5 µM), without a hit: top-dose activity change, negative = inhibition, actives largely listed as inhibitors. actives 0.46% (n = 330,000); active means well fitted inhibition curve with a large enough effect; inconclusive means small, poorly fitted or top-dose-only effect; inactive means no such curve, though single readings can be large or run the other way; tested in A549 cells; note: nearly all actives have a fitted effect of over 30% in size; inactives centre near -10
# Vaccinia mCherry = inhibitors of vaccinia virus infection (mCherry reporter signal); actives 0.63% (n = 310,000); Potency, µM (highest dose often 36.5 µM), for the others: top-dose activity change, negative = inhibition, most hits filed as inhibitors; Vaccinia virus mCherry reporter infection, fluorescence; about a quarter of the inactives have no number; AID 720579; active = well fitted inhibition curve with a large enough effect; inconclusive = small, poorly fitted or top-dose-only effect; inactive = no such curve, though single readings can be large or run the other way; tested in A549 cells; note: nearly all actives have a fitted effect of over 35% in size; inactives centre near -10
# An asterisk follows results filed as active; i = inactive; ? = inconclusive; · = no result given; & = joins results of further samples. % is set by controls: 0 for no effect and ±100 for the full control effect; potency is the fitted concentration of half-maximal effect.
[1] Cc1ccc(NC(=O)CCc2nc3sc4c(c3c(=O)[nH]2)CCCC4)c(Br)c1
[2] CC(=O)N1CCc2ccccc2C1CC(=O)O (centres undefined)
[3] C=C1[C@H]2O[C@H]2[C@@H](OC(C)=O)[C@@]2(C)[C@@H](OC(C)=O)C[C@@H](OC(C)=O)[C@@](C)(O)[C@@H]2[C@@H](OC(C)=O)[C@@]2(O)[C@@H](C)C(=O)O[C@H]2[C@H]1Cl
[4] COCc1cc(=O)n2[nH]c(-c3cccc(Br)c3)cc2n1
[5] COC(=O)N/N=C(\C)c1ccc(OC(F)F)cc1OC(F)F
[6] CCOC(=O)C1C(C(=O)OC)=C(C(=O)OC)c2ccccc2N1S(=O)(=O)C(F)(F)F (centres undefined)
[7] COc1ccc(-n2ncc3c2CC(C)(C)CC3NC(=O)c2ocnc2C)cc1 (centres undefined)
[8] Cn1c(SCCOc2ccccc2Cl)nnc1-c1ccncc1
[9] C=CCNC(=S)N1CCc2c([nH]c3ccccc23)C1C (centres undefined)
[10] C/C(=N\Nc1ccc([N+](=O)[O-])cc1)c1ccc(N)cc1

screen / no.,1,2,3,4,5,6,7,8,9,10
VACV Venus inh,-14.4%,-4.5%,3.4%,-12.8%,1.4%,-0.3%,-11.9%,-9.7%,-4.2%,-1.3%
Vaccinia mCherry,-0.4%,i,-16.5%,·,-11.1%,-3.3%,-9.0%,i,-3.7%,-23.0%

[11] O=C(CSc1nccn1-c1ccccc1)N1CCc2ccccc21
[12] CCCCN1C(=O)C(=O)N(CC(=O)c2cc(C)n(C3CC3)c2C)C1=O
[13] O=c1[nH]c(-c2ccccc2)nc(-c2ccccc2)c1Cl
[14] CCOc1ccc(NC(=O)N2CCCC2C(=O)NCC2CCCO2)cc1 (centres undefined)
[15] COc1ccc([C@H]2N[C@]3(CCCN(Cc4ccco4)C3=O)[C@H]3C(=O)N(Cc4ccccc4)C(=O)[C@@H]23)cc1
[16] CC(C)c1nc2cc(C(=O)N(C)C3CCOCC3)ccc2o1
[17] Cc1ccc(-c2cc(C(F)(F)F)n3nc(C(=O)Nc4ccc(Cl)c(C(F)(F)F)c4)cc3n2)cc1
[18] CN(Cc1cccc2cnccc12)C(=O)CCc1nnc(CCc2ccccc2)o1
[19] COc1cc(CN2CCC3(CCC(CNC(=O)c4cc(C)nn4C)O3)CC2)ccc1F (centres undefined)
[20] CCCCOc1ccc(CN2CCCCC2)cc1

screen / no.,11,12,13,14,15,16,17,18,19,20
VACV Venus inh,-8.0%,-6.4%,-8.6%,-16.7%,-18.4%,-0.9%,7.4%,1.8%,-21.0%,-3.8%
Vaccinia mCherry,·,-14.0%,-14.3%,i,i,i,7.9%,i,i,-11.3%

[21] CCOC(=O)c1c(/N=C/c2cccc([N+](=O)[O-])c2O)sc(C)c1C
[22] CC(C)(C)n1nnnc1CN1CCN2CCCC2C1 (centres undefined)
[23] OCCOCCOc1ccc(-c2nn[nH]n2)cc1
[24] Cc1ccc2cccc(NC(=O)COc3ccccc3Cl)c2n1
[25] CCN(CC)C(=O)c1ccc(NC(=O)Cn2nc(-c3ccc(C)cc3)c3ccccc3c2=O)cc1
[26] N#C/C(=C/c1cn(CC(=O)O)c2ccccc12)C(=O)Nc1ccccc1
[27] CCCCC(=O)Nc1nnn(CCC)n1
[28] O=C(O)C(C1CCCCC1)C1(O)CCCC1 (centres undefined)
[29] CCn1c(SCc2ccccc2Cl)nc(=O)c2c(C(=O)OC)cc(C3CC3)nc21
[30] CCC(OC(=O)c1cc2sccc2n1C)C(=O)NCc1ccco1 (centres undefined)

screen / no.,21,22,23,24,25,26,27,28,29,30
VACV Venus inh,10.4%,-7.2%,-4.8%,-1.9%,4.4%,-4.7%,-2.7%,-6.3%,-11.4%,-24.1%
Vaccinia mCherry,i,-14.0%,i,1.6%,-14.5%,-3.3%,i,i,-15.5%,-14.7%

# Along the list, as entered above.
# Nos. 21–29 in Vaccinia mCherry, in turn: i, -14.0%, i, 1.6%, -14.5%, -3.3%, i, i, -15.5%
# Nos. 21–29 in VACV Venus inh, in turn: 10.4%, -7.2%, -4.8%, -1.9%, 4.4%, -4.7%, -2.7%, -6.3%, -11.4%

# (listing goes on)
[31] O=C1CCc2cc(S(=O)(=O)NCCc3ccccc3)cc3c2N1CC3
[32] Cc1ccccc1-c1nc(NCCN(C)C)nc2ccsc12
[33] CCCNC(=O)C1(C)CCN1C(=O)C/C=C/c1ccccc1 (centres undefined)
[34] CCOC(=O)N1CCN(C(=S)NC2CCCCC2)CC1
[35] O=C(OCCN1C(=O)c2ccccc2C1=O)c1cc(S(=O)(=O)N2CCOCC2)ccc1F
[36] COc1ccc(N(CCCN2C(=O)c3cccc4cccc(c34)C2=O)C(=O)c2cccnc2)cc1
[37] O=C(CN(C(=O)c1csnn1)c1ccccc1F)NCc1ccc2c(c1)OCO2
[38] CCCCOP(=O)(OCCCC)C1(NS(=O)(=O)c2ccccc2)C=CC(=O)c2ccccc21 (centres undefined)
[39] Cc1ccc(Cl)cc1N1CCN(C(=O)CCCn2c(=O)[nH]c3ccc(Br)cc3c2=O)CC1
[40] CCOc1ccc(OCC)c(NC(=O)CN2CCN(c3cccc(C)c3C)CC2)c1

screen / no.,31,32,33,34,35,36,37,38,39,40
VACV Venus inh,-14.5%,0.9%,3.2%,-12.2%,-0.1%,-20.4%,4.1%,-8.8%,-23.6%,-4.2%
Vaccinia mCherry,i,-8.9%,27.9%,i,i,i,-2.9%,·,?,-12.1%

[41] CC(C)NC(=O)C1(C)CCCCCN1C(=O)c1ccc(-c2ccccc2)cc1 (centres undefined)
[42] CCC(CC)C1C(C#N)=C(N)Oc2c1c(=O)oc1ccccc21 (centres undefined)
[43] Nc1[nH]c(C(=O)c2ccccc2)c(-c2ccc(Br)cc2)c1C(=O)c1ccc(Br)cc1
[44] COc1cc(CN2CCOc3ccc(C(O)c4cccnc4)cc3C2)cc(OC)c1 (centres undefined)
[45] CC1=CC(=O)C(C(C)C)=C/C1=C(\c1cc(C(C)C)c(OP(=O)(O)O)cc1C)c1ccccc1C(=O)O
[46] CC1CCN(c2nc3c(c(=O)n(C)c(=O)n3C)n2CCSc2ncccn2)CC1
[47] CNc1nc(NCc2cccc(OC)c2)c2sccc2n1
[48] Nc1o[nH]c(=O)c1Cc1ccccc1
[49] CNCCCOc1cc(C)cc(C)c1C
[50] Cc1cccc(C(=O)Nc2ccc3nc(SCC(=O)N4CCCC4)sc3c2)c1

screen / no.,41,42,43,44,45,46,47,48,49,50
VACV Venus inh,-8.5%,-20.8%,-3.7%,5.2%,?,-9.3%,-11.0%,-8.8%,-1.9%,-11.1%
Vaccinia mCherry,i,·,0.3%,-10.3%,-21.0%,i,12.2%,i,-3.4%,-7.2%

[51] COC(=O)CCCCCN1C(=O)NC(c2ccc(-c3ccccc3)cc2)C(C(=O)OCc2ccccc2)=C1C (centres undefined)
[52] CCCCC(=O)OC1=C(C(=O)c2ccccc2)N(C)S(=O)(=O)c2ccccc21
[53] COc1ccc(-c2noc(Cn3cc(S(=O)(=O)N4CCCC4)ccc3=O)n2)cc1
[54] Cc1ccc(-n2c(=O)[nH]c3c(C(N)=O)nc(-c4ccc(C)o4)nc32)cc1
[55] Cc1cc(N2CCN(S(=O)(=O)c3ccc(Br)cc3)CC2)n2ncnc2n1
[56] CCOC(=O)n1c(=O)n(Cc2ccc(F)cc2)c2ccccc21
[57] O=c1c(CN2CCN(Cc3ccccc3F)C(CCO)C2)coc2ccccc12 (centres undefined)
[58] COc1ccc(C2CCCN2C(=S)Nc2cccc(C)c2)cc1OC (centres undefined)
[59] CC(C)C(=O)Nc1c(-c2cccc(Cl)c2)c(=O)c2ccccc2n1C
[60] COCCn1c(=O)[nH]c2cc(C(=O)N3CCN(c4ccccc4)CC3)ccc2c1=O

screen / no.,51,52,53,54,55,56,57,58,59,60
VACV Venus inh,-8.4%,-17.0%,2.3%,?,-6.0%,-4.2%,-10.0%,1.9%,-8.8%,-9.1%&-11.2%
Vaccinia mCherry,i,-28.8%,-9.5%,·,4.6%,-3.3%,-15.1%,-9.7%,i,-20.6%&-16.2%

[61] CC(=O)Nc1ccc(S(=O)(=O)N2CCc3cc4c(cc3C2C)OCCCO4)cc1 (centres undefined)
[62] CC1(C(=O)N2Cc3ccccc3C2)CCN1C(=O)Cc1ccccc1 (centres undefined)
[63] CS(=O)(=O)N(CC(=O)NCCSCc1ccco1)c1ccc2c(c1)OCO2
[64] COc1ccc(-c2nn(-c3ccccc3)cc2CNC(=O)c2cccc([N+](=O)[O-])c2)cc1

screen / no.,61,62,63,64
VACV Venus inh,-18.4%,-3.4%,-11.7%,-13.9%
Vaccinia mCherry,-20.9%,-3.1%,-14.9%,-17.5%

# Quoted from above: nos. 46–61
[46] CC1CCN(c2nc3c(c(=O)n(C)c(=O)n3C)n2CCSc2ncccn2)CC1
[47] CNc1nc(NCc2cccc(OC)c2)c2sccc2n1
[48] Nc1o[nH]c(=O)c1Cc1ccccc1
[49] CNCCCOc1cc(C)cc(C)c1C
[50] Cc1cccc(C(=O)Nc2ccc3nc(SCC(=O)N4CCCC4)sc3c2)c1
[51] COC(=O)CCCCCN1C(=O)NC(c2ccc(-c3ccccc3)cc2)C(C(=O)OCc2ccccc2)=C1C (centres undefined)
[52] CCCCC(=O)OC1=C(C(=O)c2ccccc2)N(C)S(=O)(=O)c2ccccc21
[53] COc1ccc(-c2noc(Cn3cc(S(=O)(=O)N4CCCC4)ccc3=O)n2)cc1
[54] Cc1ccc(-n2c(=O)[nH]c3c(C(N)=O)nc(-c4ccc(C)o4)nc32)cc1
[55] Cc1cc(N2CCN(S(=O)(=O)c3ccc(Br)cc3)CC2)n2ncnc2n1
[56] CCOC(=O)n1c(=O)n(Cc2ccc(F)cc2)c2ccccc21
[57] O=c1c(CN2CCN(Cc3ccccc3F)C(CCO)C2)coc2ccccc12 (centres undefined)

screen / no.,46,47,48,49,50,51,52,53,54,55,56,57
VACV Venus inh,-9.3%,-11.0%,-8.8%,-1.9%,-11.1%,-8.4%,-17.0%,2.3%,?,-6.0%,-4.2%,-10.0%
Vaccinia mCherry,i,12.2%,i,-3.4%,-7.2%,i,-28.8%,-9.5%,·,4.6%,-3.3%,-15.1%

[58] COc1ccc(C2CCCN2C(=S)Nc2cccc(C)c2)cc1OC (centres undefined)
[59] CC(C)C(=O)Nc1c(-c2cccc(Cl)c2)c(=O)c2ccccc2n1C
[60] COCCn1c(=O)[nH]c2cc(C(=O)N3CCN(c4ccccc4)CC3)ccc2c1=O
[61] CC(=O)Nc1ccc(S(=O)(=O)N2CCc3cc4c(cc3C2C)OCCCO4)cc1 (centres undefined)

screen / no.,58,59,60,61
VACV Venus inh,1.9%,-8.8%,-9.1%&-11.2%,-18.4%
Vaccinia mCherry,-9.7%,i,-20.6%&-16.2%,-20.9%
